Assay outcomes (PubChem BioAssay)
Calb FLC = affects C. albicans growth with fluconazole | C. albicans CaCi-2 (fluconazole-resistant clinical isolate) + fluconazole, Alamar Blue growth, 48 h | growth inhibition, % (concentration not given with the values) | actives 0.57% (n = 300,000) | AID 1979;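 active = most replicates above 75%; inconclusive = exactly half above 75%; inactive = most below 75%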;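 note: all wells also contain fluconazole at 8 µg/ml as a sub-toxic cotreatment; 0% = median of DMSO wells and 100% = median of geldanamycin control wells; wells of about 8 µL received 7.5 nL stock; the first replicate is given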
ALR H2O2 inh = inhibitors of human sulfhydryl oxidase ALR | P55789 | purified ALR, DTT oxidation, H2O2 HRP-luminol luminescence | inhibition, % (concentration not given with the values) | actives 3.8% (n = 290,000) | AID 485317;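 active = mean and each replicate at 75% or more; inconclusive = only one of the two met; inactive = neither met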;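 note: stock transfer was 7.5 nL into about 7.5 µL; 0% = neutral wells and 100% = wells with inactivated enzyme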
Target sequence (P55789 whole entry, looked up): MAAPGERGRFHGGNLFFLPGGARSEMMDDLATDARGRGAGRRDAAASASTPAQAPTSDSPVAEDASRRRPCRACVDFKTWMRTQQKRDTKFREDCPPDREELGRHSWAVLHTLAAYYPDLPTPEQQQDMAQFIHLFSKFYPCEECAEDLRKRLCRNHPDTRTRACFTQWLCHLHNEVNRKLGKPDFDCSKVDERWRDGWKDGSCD
Beta cell apopt = blocks beta cell apoptosis; actives 0.8% (n = 300,000); protection from apoptosis, % (test concentration not listed); INS-1E cytokine-induced death, ATP luminescence, 48 h; percent of positive-control rescue, neutral wells zero; AID 435005;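 active = all replicates at 75% or more, or half of them and the mean; inconclusive = half reach 75% but not the mean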;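 note: 0% = cytokine-treated negative control wells and 100% = positive control rescue; higher means more ATP so stronger rescue from cytokine killing; wells of about 40 µL received 100 nL stock; the first replicate is given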
RanGTP-Impb inh = inhibitors of RanGTP-importin-beta interaction, primary screen, biochemical, FRET, CFP-Ran, YFP-importin-beta, homogeneous; cell-free CFP-Ran/YFP-importin-beta FRET ratio; inhibition, % (test concentration not listed); actives 1.1% (n = 300,000);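 active = most replicates above 15%; inconclusive = exactly half above 15%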;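 note: 0% = DMSO wells and 100% = Ran loaded with GDP instead of GTP; wells of about 40 µL received 100 nL stock; the first replicate is given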
FGF22 binding = binders of recombinant human FGF22 by thermal shift; Q9HCT0; calls only at 9.99 µM; actives 1.5% (n = 340,000); SYPRO orange fluorescence; percent of sucrose octasulfate shift, DMSO zero;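 active = melting point raised past a set limit in the mean and every replicate; inconclusive = no clear call; three in four hits are not shown here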
Target sequence (Q9HCT0 whole entry, looked up): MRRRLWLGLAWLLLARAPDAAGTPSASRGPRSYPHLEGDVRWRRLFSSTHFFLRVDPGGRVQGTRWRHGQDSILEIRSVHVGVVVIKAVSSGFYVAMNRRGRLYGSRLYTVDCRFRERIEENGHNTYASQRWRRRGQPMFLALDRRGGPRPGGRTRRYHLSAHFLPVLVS
rRNA inh HTS = inhibitors of bacterial rRNA selective over humanized ribosomes. actives 1.6% (n = 350,000). GFP signal change (wild-type ribosome), % (no concentration beside the values). E. coli WT GFP vs humanized-ribosome RFP mutants, fluorescence, 24 h; hits give low values; DMSO median 0, no signal -100;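 active = significant combined selectivity score with lowered wild-type GFP, culture density cut under 30%, mutant RFP and density less affected; inactive = any of these conditions unmet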; note: one replicate is shown; some compounds called inactive have numbers as strong as hits
MLL AF4-AF9 inh = inhibitors of human MLL-AF4/AF9 interaction; actives 0.47% (n = 350,000); AlphaScreen, biotin-AF4 peptide binding to FLAG-AF9; P42568; inhibition, % at 10 µM; AID 651704;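 active = every replicate reaching a set inhibition limit, whatever the replicate mean, cut at about 25% in these data; inconclusive = mean inhibition reaches that limit but some replicates miss it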;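 note: 0% = plate neutral control median and 100% = total signal loss; the record names both 10 and 1 µM as test concentration; the first replicate is given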
Target sequence (P42568 whole entry, looked up): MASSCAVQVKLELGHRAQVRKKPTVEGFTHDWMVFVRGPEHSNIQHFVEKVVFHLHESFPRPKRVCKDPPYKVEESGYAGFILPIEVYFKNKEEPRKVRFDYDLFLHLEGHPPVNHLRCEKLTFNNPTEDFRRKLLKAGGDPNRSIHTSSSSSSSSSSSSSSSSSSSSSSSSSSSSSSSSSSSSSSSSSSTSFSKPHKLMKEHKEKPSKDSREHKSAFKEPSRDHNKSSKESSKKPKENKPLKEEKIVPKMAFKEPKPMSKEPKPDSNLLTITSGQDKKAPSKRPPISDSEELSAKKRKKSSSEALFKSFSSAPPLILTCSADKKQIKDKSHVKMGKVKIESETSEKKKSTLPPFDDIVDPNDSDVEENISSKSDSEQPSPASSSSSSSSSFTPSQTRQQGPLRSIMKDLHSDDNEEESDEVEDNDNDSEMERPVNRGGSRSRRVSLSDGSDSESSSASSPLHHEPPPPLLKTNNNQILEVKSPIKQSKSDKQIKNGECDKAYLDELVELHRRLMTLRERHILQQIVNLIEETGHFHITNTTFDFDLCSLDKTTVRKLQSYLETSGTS
T cruzi inh = blocks replication of Trypanosoma cruzi; T. cruzi beta-gal in NIH3T3, luminescence, 90 h; inhibition, % (no concentration beside the values); actives 1.4% (n = 300,000);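 active = mean inhibition across valid replicates above about 55%, limit read from the data; inconclusive = mean below that limit but half or more replicates reach it; inactive = mean below it, under half of replicates reach it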;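 note: signal also drops with host cell toxicity which is not excluded here; 0% = plate median of DMSO wells and 100% = zero luminescence signal; higher percent means less beta-gal luminescence so fewer parasites; stock transfer was 50 nL into about 50 µL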
rRNA inh HTS OD600 = also measured in rRNA inh HTS; calls as there; OD600 change, %; measured here: OD600 growth;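 optical density of the mix in the first replicate; 0 = DMSO median and -100 = no signal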
rRNA inh HTS RFP = recorded beside rRNA inh HTS, whose call it bears; RFP signal change, %; measured here: RFP humanized mutant strains;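 first replicate; 0 = DMSO median and -100 = no signal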
Numbers without * were called inactive; i = inactive; ? = inconclusive; / = no result given. Some of the compounds tested; rates above refer to the full screens.

structure | Calb FLC | ALR H2O2 inh | Beta cell apopt | RanGTP-Impb inh | FGF22 binding | rRNA inh HTS | rRNA inh HTS OD600 | rRNA inh HTS RFP | MLL AF4-AF9 inh | T cruzi inh
N#Cc1cccnc1Oc1ccccc1 | 3 | -2 | -4 | -2.7 | i | 7 | 11 | -0.1 | -9.7 | 0
CC(=O)c1cc2c(cc1NC(=O)Cc1ccsc1)OCO2 | / | -1 | -6 | / | i | -1 | -12 | -2.9 | 0.4 | /
O=C(COc1ccc2c3c(c(=O)oc2c1)CCCC3)NCCCN1CCCC1=O | 22 | 0 | -1 | 0.4 | i | 3 | -3 | 3.2 | -0.6 | -7
CCCCN(C)C(=O)c1oc2ccc(S(=O)(=O)N3CCCCCC3)cc2c1C | 23 | -5 | 14 | 2.0 | / | / | / | / | / | 29
CCc1cc(CNC(=O)CCc2nnc(CCCc3ccccc3)o2)on1 | 0 | -10 | -7 | 0.5 | i | 9 | 5 | -0.4 | -50 | -4
CCc1nnc(NC(=O)C2Cc3ccccc3CN2S(=O)(=O)c2ccc(C)cc2)s1 (centres undefined) | 3 | -3 | 3 | 4.7 | / | / | / | / | / | 4
O=C(CSc1cc(Cl)ccc1Cl)NC1CC1 | / | -8 | -5 | / | i | 7 | 7 | -1.8 | -1.2 | /
CC/C(O)=C(\C#N)c1nnc2n1CCCCC2 | -5 | -6 | -10 | 0.0 | / | / | / | / | / | -3
O=[N+]([O-])c1cccc(-c2nnnn2-c2cccc(F)c2)c1 | 6 | -4 | 1 | 0.5 | i | 3 | -6 | -0.9 | 2.6 | -19
COc1ccc(NC(=O)CSc2nnnn2C2CC2)cc1S(=O)(=O)N1CCOCC1 | / | / | -2 | / | i | 4 | 14 | -1.0 | -14 | /
COc1ccc(C(C)=NNc2ccc([N+](=O)[O-])cc2S(=O)(=O)Nc2ccccc2C(=O)O)c(OC)c1 | / | ? | -1 | / | / | -20* | -8.8* | 1.3* | 6.9 | /
C/C(=N\NC(=O)c1cccnc1)c1ccc(-n2ccnc2)cc1 | -12 | -6 | 0 | -2.0 | i | -2 | 2 | -3.4 | -5.4 | 0
COc1ccc(N=C2S/C(=C\c3ccco3)C(=O)N2CC(C)C)cc1 | -1 | 4 | 10 | -1.0 | / | / | / | / | / | -8
N#C/C(=C\c1ccc(-c2ccc([N+](=O)[O-])cc2Br)o1)C(=O)N1CCN(c2ccccc2)CC1 | 24 | 4 | -3 | 3.4 | / | / | / | / | / | 20
COCCn1nnnc1CN1CCN(c2cccc(C(F)(F)F)c2)CC1 | -2 | -2 | -2 | 0.3 | / | / | / | / | / | 6

The listing continues.
structure | Calb FLC | ALR H2O2 inh | Beta cell apopt | RanGTP-Impb inh | FGF22 binding | rRNA inh HTS | rRNA inh HTS OD600 | rRNA inh HTS RFP | MLL AF4-AF9 inh | T cruzi inh
CC1(C)CC2=C(CO1)C(=S)NC(c1ccccc1)N2CC1CCCO1 (centres undefined) | -2 | / | / | 2.5 | i | 30 | 19 | 4.1 | 4.0 | 20
COc1ccc(C2C3=C(CC(C)(C)CC3=O)Oc3ncn(CCO)c(=N)c32)cc1OC (centres undefined) | 15 | -11 | 0 | 0.1 | / | / | / | / | / | -9
CC(=O)c1ccc(S(=O)(=O)Oc2ccc(C(=O)O)cc2Cl)cc1 | / | -3 | -2 | / | i | -2 | -16 | 1.7 | -1.5 | /
CCOC(=O)C1CCN(CC(C)(C)NS(=O)(=O)c2ccc(C)cc2)CC1 | -11 | -7 | 0 | 11 | i | 4 | 14 | -4.5 | -4.9 | 5
Cn1ncc2c1ncn1nc(COc3ccc4ccccc4c3)nc21 | -7 | -6 | -6 | -2.4 | / | / | / | / | / | -6
O=C(NCC1CC1)c1cc([N+](=O)[O-])cc([N+](=O)[O-])c1 | -8 | -24 | -13 | 0.7 | i | 7 | 2 | 2.7 | 0.0 | 61*
Nc1ccn([C@H]2CS[C@@H](CO)O2)c(=O)n1 | / | -15 | 2 | / | i | 3 | 2 | -0.4 | / | /
Cc1ccc(NC(=O)CCC(=O)NNC(=O)/C=C/C(=O)O)c(C)c1 | 2 | / | -3 | -1.7 | / | / | / | / | / | -2
O=C(Nc1ccccc1)c1ccc(NCC2CCCO2)c(S(=O)(=O)N2CCOCC2)c1 (centres undefined) | 0 | / | 1 | -0.7 | / | / | / | / | / | 23
CCOc1ccccc1NC(=O)COC(=O)CCOc1cc(C)ccc1C | -3 | 5 | -9 | -3.3 | i | 0 | 1 | -1.5 | ? | -4
CCCC(NC(=O)c1c(C)noc1C)C12CC3CC(CC(C3)C1)C2 (centres undefined) | -4 | 3 | -1 | -2.3 | i | 6 | 13 | 1.3 | -1.1 | 8
O=C(O)c1ccc(N=NN2CCCCCC2)cc1 | -9 | -3 | -2 | 4.5 | i | -2 | 12 | -2.3 | -2.3 | -12
CC(NC(=O)C12CC3CC(C)(CC(C)(C3)C1)C2)c1ccncc1 (centres undefined) | 2 | -8 | -2 | -1.3 | i | -24* | -14* | 2.5* | -6.9 | 12
Nc1c(N(CCO)C(=O)C2CCCC2)c(=O)[nH]c(=O)n1Cc1ccccc1 | / | -8 | 5 | / | i | 11 | 12 | -0.7 | -10 | /
CC(C)CN(C(=O)CCc1ccccc1)c1c(N)n(CC(C)C)c(=O)[nH]c1=O | -1 | -26 | -4 | 2.2 | i | 8 | 6 | 10 | -0.6 | -7

New compounds follow.
structure | Calb FLC | ALR H2O2 inh | Beta cell apopt | RanGTP-Impb inh | FGF22 binding | rRNA inh HTS | rRNA inh HTS OD600 | rRNA inh HTS RFP | MLL AF4-AF9 inh | T cruzi inh
COc1cc(C(=O)NC(C)Cc2ccccn2)ccc1OC1CCN(C(C)=O)CC1 (centres undefined) | -12 | / | / | -1.8 | i | 2 | 14 | -1.3 | -4.2 | -10
C/C=C/c1ccc(OCC(O)CNCCc2ccc(OC)cc2)c(OC)c1 (centres undefined) | -12 | -20 | 7 | -0.3 | i | 5 | 5 | 3.3 | 8.1 | 26
CCOc1ccc(C(=O)N2CCN(c3ccccc3)CC2)cc1OCC | 22 | 39 | -6 | -4.5 | / | / | / | / | / | -3
CNC(=O)c1nc(C)n(-c2cc(Cl)ccc2Cl)n1 | 5 | 4 | -11 | ? | / | / | / | / | / | -22
Cc1ccc(C(=O)N2CCN(c3cc(=O)[nH]nc3-c3ccccc3)CC2)cc1 | 4 | -12 | 4 | 7.5 | / | / | / | / | / | 4
O=C1CSC(c2ccccc2F)N1 (centres undefined) | -6 | / | 0 | 4.4 | i | 14 | 3 | 5.9 | -2.4 | -9
Cc1cc(C)n2nc(SCc3ccccc3C(=O)O)nc2n1 | 3 | 17 | -4 | -0.6 | i | 2 | 6 | -0.3 | -0.6 | -6
CCC(C(=O)Nc1cccc(OC)c1)n1nc(C)c2c(C)n(-c3ccccc3)nc2c1=O (centres undefined) | 5 | -5 | 0 | 5.0 | i | -1 | -2 | -0.9 | -0.1 | 6
NCCNc1ccc([N+](=O)[O-])c(Sc2nc3ccccc3[nH]2)c1 | ? | -16 | -16 | -1.1 | / | / | / | / | / | 6
O=C(NCC(=O)N(c1cccnc1)C(C(=O)NC1CCCC1)c1ccccc1)c1ccco1 (centres undefined) | 24 | -5 | -8 | 3.4 | i | 2 | 0 | 2.3 | -1.2 | 1
COc1ccc(CC(=O)NNC(=O)CCc2ccccc2)cc1 | 14 | / | -1 | 1.3 | i | 10 | 9 | 1.3 | -1.0 | -14
COc1cc(NS(=O)(=O)c2c(C)[nH]c(C)c2C(=O)N2CCCCC2)cc(OC)c1OC | 0 | 12 | / | 2.4 | i | 2 | 18 | 0.5 | -1.6 | 2
Cc1cc(C)c(S(=O)(=O)NCc2cn3ccccc3n2)c(C)c1 | -4 | -4 | -8 | -1.1 | i | 7 | 8 | -2.5 | 4.4 | 0
COc1ccc(/C(O)=C2\C(=O)C(=O)N(CCN(C)C)C2c2cccc(OC)c2OC)cc1Cl (centres undefined) | -3 | -1 | -10 | 0.7 | / | / | / | / | / | 4
Cc1nc2ccccn2c1C(=O)NC1CCCc2ccccc21 (centres undefined) | 28 | / | 41 | -2.3 | i | -4 | -1 | 0.6 | -1.0 | 9

(list continues)
structure | Calb FLC | ALR H2O2 inh | Beta cell apopt | RanGTP-Impb inh | FGF22 binding | rRNA inh HTS | rRNA inh HTS OD600 | rRNA inh HTS RFP | MLL AF4-AF9 inh | T cruzi inh
O=C(CCCC(=O)OCC(=O)NC1CCCC1)Nc1ccccn1 | -19 | -1 | -5 | 1.2 | / | / | / | / | / | -18
Cc1ccc2c(c1)N(CCC(=O)NCCCN1CCCC1)C(=O)C(C)O2 (centres undefined) | 6 | -29 | -3 | -0.6 | i | 5 | 7 | 2.3 | 12 | 9
O=C(NCCCCCCNC(=O)NCc1ccco1)NCc1ccco1 | -14 | -4 | 4 | -2.0 | / | / | / | / | / | -8
C=CCn1c(-c2csc3ccccc23)n[nH]c1=S | 0 | 67 | -2 | -2.8 | / | / | / | / | / | 0
CCCn1c(=O)c(C(=O)NNS(=O)(=O)c2ccc(C)cc2)c(O)c2ccccc21 | -2 | 14 | 4 | 1.6 | i | -49 | -69 | -14 | -4.8 | -15
CC1(C)Cc2ccccc2C(N/N=C/c2cccc(F)c2)=N1 | 10 | -7 | / | -9.7 | / | / | / | / | / | 9
CCCN(CC(=O)Nc1ccccc1C)C(=O)c1sc2ccccc2c1Cl | / | -2 | 0 | / | i | / | / | / | 2.7 | /
O=C(NCc1ccc(F)cc1)c1c2c(nc3ccccc13)CCN(Cc1ccccc1)C2 | -9 | -8 | 8 | 0.7 | / | / | / | / | / | 18
CN(C)S(=O)(=O)c1ccc(C(=O)NCC(C)(C)N2CCOCC2)cc1 | -4 | -5 | -3 | ? | i | 19 | 18 | 3.4 | -1.0 | -1
O=C(CCc1ccccc1)Nc1nncs1 | 0 | -2 | -3 | 2.5 | / | / | / | / | / | 5
Cc1cccc(Cl)c1OCCCN1CCOCC1 | 18 | -2 | -8 | 1.4 | i | 12 | 3 | 3.1 | 2.1 | 7
